Arbovirus inh – blocks arbovirus infection; AID 1251; 200,000 tested, 0.37% active; inhibition, % at 10 µM; arbovirus infection cell-based antiviral screen;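 active = inhibition from about 30%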;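 note: bluetongue infection of BSR cells; cell survival read as ATP light after 72 h; 0% = infected wells without compound and 100% = uninfected wells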
Mtb growth – M. tuberculosis H37Rv growth inhibitors, H37Rv strain (AID 1626). M. tuberculosis H37Rv growth inhibition; higher % means a stronger effect. one-dose inhibition, % at 10 µM; IC50 in µM for titrated hits. 220,000 tested, 0.95% active;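 active = confirmed in a dose series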;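 note: bacteria incubated seven days before Alamar blue readout; 0% = bacteria only wells and 100% = bacteria with antibiotic wells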
RecA splice inh – blocks M. tuberculosis RecA intein splicing | cell-free RecA intein splicing, fluorescence | inhibition, %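 (about 9 µM by stock and volumes)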 | 290,000 tested, 0.75% active | AID 2221; in the data active = inhibition above about 30%;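 note: 0% = vehicle wells and 100% = reference inhibitor control wells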
Target sequence (P9WHJ3 whole entry, looked up, canonical isoform): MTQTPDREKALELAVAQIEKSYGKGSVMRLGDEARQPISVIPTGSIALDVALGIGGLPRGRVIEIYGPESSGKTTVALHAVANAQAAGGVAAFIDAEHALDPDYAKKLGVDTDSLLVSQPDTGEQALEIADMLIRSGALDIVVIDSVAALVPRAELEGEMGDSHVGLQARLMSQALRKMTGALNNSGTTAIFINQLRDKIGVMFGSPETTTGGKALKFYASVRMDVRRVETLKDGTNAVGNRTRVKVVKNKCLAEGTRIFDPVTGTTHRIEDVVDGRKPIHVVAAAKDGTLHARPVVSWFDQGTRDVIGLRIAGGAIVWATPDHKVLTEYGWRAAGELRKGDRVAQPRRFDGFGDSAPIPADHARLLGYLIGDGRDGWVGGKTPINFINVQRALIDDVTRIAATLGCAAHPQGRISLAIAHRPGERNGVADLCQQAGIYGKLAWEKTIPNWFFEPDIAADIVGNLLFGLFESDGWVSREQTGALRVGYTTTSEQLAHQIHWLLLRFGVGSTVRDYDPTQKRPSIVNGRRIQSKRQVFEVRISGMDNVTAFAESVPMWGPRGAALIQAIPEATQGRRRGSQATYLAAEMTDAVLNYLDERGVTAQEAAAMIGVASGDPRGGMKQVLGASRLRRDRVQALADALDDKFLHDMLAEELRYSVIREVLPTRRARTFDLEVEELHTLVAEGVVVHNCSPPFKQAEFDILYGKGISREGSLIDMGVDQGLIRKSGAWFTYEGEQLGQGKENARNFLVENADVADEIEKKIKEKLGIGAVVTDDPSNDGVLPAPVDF
YopH inh – inhibitors of Yersinia enterocolitica YopH tyrosine phosphatase | fluorescence Ex485/Em525 | inhibition, %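 (about 10 µM by stock and volumes)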 | 140,000 tested, 0.16% active;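 active = inhibition of 50% or more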;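 note: controls were vehicle for no effect and minimum signal wells for full effect; inactives centre near -20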
Mtb betalactam – beta-lactam sensitization of Mtb H37Rv; M. tuberculosis H37Rv growth with meropenem, percent inhibition; hits of this screen are not shown here; inhibition, % at 25 µM; 330,000 tested, 0.27% active; AID 434955;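 active = about 74% or more and at least 40 points above the plate without the antibiotic, then above 30% in a dose series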;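 note: growth measured after seven days incubation then overnight dye step; 0% = bacteria only wells and 100% = bacteria with antibiotic; twin plates without the antibiotic show which effects depend on it; some results filed as inactive read as strong as hits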
Arbovirus inh repeat – further read-out of Arbovirus inh, marked with its call; inhibition, %; measured here: 10K subset replicate screen; many hits read low in the repeat;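 first of two repeat runs on a subset; 0% = infected and 100% = uninfected wells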
* hit, by the source's call. This is a subset; the hit share may differ from the screen's.

`CC1CCc2cc(F)cc3c(O)c(C(=O)NCC4CCCO4)c(=O)n1c23` (centres undefined) gave Arbovirus inh -18.4, Mtb growth -2.0%, RecA splice inh 4.0, YopH inh -31.2 and Mtb betalactam -8.0.
Screening COC(=O)C(NC(=O)c1ccc(F)cc1)(Nc1ncc(S(=O)(=O)c2ccc([N+](=O)[O-])cc2)s1)C(F)(F)F (centres undefined) returned Arbovirus inh 10.2, Mtb growth -9.6%, RecA splice inh 8.4, YopH inh -33.4 and Mtb betalactam -8.8.
For COc1ccc(N2CCN(C(=S)Nc3cc(C)cc(C)c3)CC2)cc1 the results were Arbovirus inh 1.5, Mtb growth 4.0%, RecA splice inh -0.8, YopH inh -25.3 and Mtb betalactam -4.5.
Screening CN(C)S(=O)(=O)c1cccc(NC(=O)C2Cc3ccccc3CN2C(=O)c2ccccc2)c1 (centres undefined) returned RecA splice inh 4.4 and Mtb betalactam -2.0.
`CCOC(=O)c1nc(Nc2ccccc2CC)c2ccccc2n1` gave RecA splice inh -1.2 and Mtb betalactam 1.4.
`O=C(Nc1ccc2c(c1)CN(Cc1ccc(CO)o1)CC2)c1ccc(C(F)(F)F)cc1` gave RecA splice inh 5.5 and Mtb betalactam 0.2.
For O=C1CSC(c2cccc([N+](=O)[O-])c2)N1c1ccccc1 (centres undefined) the results were Arbovirus inh -0.9, Mtb growth -3.6%, RecA splice inh 0.4 and Mtb betalactam -5.1.
Cn1c(SCC(=O)NC2CCCCCC2)nnc1-c1cccs1 was read as Arbovirus inh 8.5, RecA splice inh -0.1, YopH inh -9.8 and Mtb betalactam -6.1.
Nc1nc(-c2ccccc2)nn1C(=O)Cc1ccccc1 was read as Arbovirus inh 5.6, Mtb growth -8.5%, RecA splice inh 2.4, YopH inh -19.6 and Mtb betalactam 2.0.
For Cc1ccc(C(=O)n2cc(CCN3CCS(=O)(=O)CC3)c3ccccc32)cc1 the results were Arbovirus inh 5.8, Mtb growth 6.5%, RecA splice inh -1.4, YopH inh 16.6 and Mtb betalactam -0.1.
Cc1cc(-c2ccc(C(C)C)c(S(=O)(=O)N3CCN(c4ccccc4)CC3)c2)on1 was read as RecA splice inh 5.1 and Mtb betalactam -2.4.
`CNC(=O)N(O)C1N(/N=C/c2cccnc2)C(=S)SC1(C)C` (centres undefined) gave Mtb growth 13.7%, RecA splice inh -11.3 and Mtb betalactam -6.6.
For O=S(=O)(NC1CCCCCC1)c1cccc2cccnc12 the results were Arbovirus inh -0.5, Mtb growth -13.0%, RecA splice inh 3.3, YopH inh -33.1 and Mtb betalactam -3.1.
For O=C1CC(=O)Nc2cc(S(=O)(=O)NCc3cccs3)ccc2N1 the results were RecA splice inh -3.0 and Mtb betalactam -2.1.
CCOc1ccc(NC(=O)CCCNC(=O)Cn2cnc3sc(C)c(C)c3c2=O)cc1 was read as RecA splice inh -2.2 and Mtb betalactam -8.4.
O=C(CCC1CCCCC1)Nc1cccnc1 was read as Arbovirus inh 2.5, Mtb growth -2.4%, YopH inh -10.8 and Mtb betalactam 3.9.
CCC(C)CNC(=O)c1cccc(OC2CCN(CC(C)(C)C)CC2)c1 (centres undefined) was read as RecA splice inh -0.6 and Mtb betalactam -5.2.
For CCC1CCC(C(=O)NC(C(=O)NCCc2ccc(S(N)(=O)=O)cc2)C(C)C)CC1 (centres undefined) the results were RecA splice inh 2.3 and Mtb betalactam 5.9.
For CCc1ccc(NC(=O)Cn2nc(C)n3cccc3c2=O)cc1 the results were RecA splice inh -190.6 and Mtb betalactam -6.1.
Screening Oc1c(CN2CCN(c3ccccc3)CC2)cc(Br)c2cccnc12 returned Mtb growth 64.4%, RecA splice inh 10.3 and Mtb betalactam 98.9.

Looked up one by one from the entries so far:
Screening Oc1c(CN2CCN(c3ccccc3)CC2)cc(Br)c2cccnc12 returned Mtb growth 64.4%, RecA splice inh 10.3 and Mtb betalactam 98.9.
For CCc1ccc(NC(=O)Cn2nc(C)n3cccc3c2=O)cc1 the results were RecA splice inh -190.6 and Mtb betalactam -6.1.
For COc1ccc(N2CCN(C(=S)Nc3cc(C)cc(C)c3)CC2)cc1 the results were Arbovirus inh 1.5, Mtb growth 4.0%, RecA splice inh -0.8, YopH inh -25.3 and Mtb betalactam -4.5.
Cn1c(SCC(=O)NC2CCCCCC2)nnc1-c1cccs1 was read as Arbovirus inh 8.5, RecA splice inh -0.1, YopH inh -9.8 and Mtb betalactam -6.1.
`CC1CCc2cc(F)cc3c(O)c(C(=O)NCC4CCCO4)c(=O)n1c23` (centres undefined) gave Arbovirus inh -18.4, Mtb growth -2.0%, RecA splice inh 4.0, YopH inh -31.2 and Mtb betalactam -8.0.
Nc1nc(-c2ccccc2)nn1C(=O)Cc1ccccc1 was read as Arbovirus inh 5.6, Mtb growth -8.5%, RecA splice inh 2.4, YopH inh -19.6 and Mtb betalactam 2.0.

The listing picks up, repeating the two entries before the break.
For CCc1ccc(NC(=O)Cn2nc(C)n3cccc3c2=O)cc1 the results were RecA splice inh -190.6 and Mtb betalactam -6.1.
Screening Oc1c(CN2CCN(c3ccccc3)CC2)cc(Br)c2cccnc12 returned Mtb growth 64.4%, RecA splice inh 10.3 and Mtb betalactam 98.9.
`Cc1ccccc1OCC(=O)NCCCNC(=O)c1ccncc1` gave RecA splice inh -0.2 and Mtb betalactam 2.8.
`Cc1ccc(-c2cc(C(=O)Nc3c(C)n(C)n(-c4ccccc4)c3=O)[nH]n2)c(O)c1` gave Arbovirus inh 1.2, Mtb growth -0.6%, RecA splice inh -3.1, YopH inh -15.1 and Mtb betalactam -2.1.
For O=S(=O)(c1ccc(Cl)cc1)n1cnc2ccccc21 the results were RecA splice inh 0.2 and Mtb betalactam 2.7.
Screening Cc1nnc(N2CCCC(C(=O)NCc3cccc(F)c3)C2)c2nn(-c3ccccc3)c(C)c12 (centres undefined) returned RecA splice inh 1.5 and Mtb betalactam 1.2.
`Cc1cc(N(CCO)CCO)ccc1N=Nc1cc(F)ccc1F` gave Arbovirus inh -9.5, Mtb growth 56.5%, RecA splice inh 4.9 and Mtb betalactam 44.2.
`CCC12C(=O)C(CC)(C(c3ccccc3)=C1c1ccccc1)[C@@H]1C(=O)N(c3ccc(C)cc3)C(=O)C12` (some centres undefined) gave Arbovirus inh 0.4, Mtb growth 9.5%, RecA splice inh -3.3, YopH inh -3.5 and Mtb betalactam 7.2.
`Nc1nonc1-n1nnc(C(=O)N/N=C/c2ccoc2)c1CSc1ccc(Cl)cc1` gave RecA splice inh 3.0 and Mtb betalactam 8.7.
Screening COc1ccccc1NC(=O)Cc1noc(CSc2nnc(C)n2C)n1 returned Arbovirus inh 1.8, Mtb growth 6.8%, RecA splice inh -0.2 and Mtb betalactam -1.4.
CC(=O)Nc1cccc(C(=O)OCC(=O)N2CCC(c3ccccc3)=N2)c1 was read as RecA splice inh 0.4 and Mtb betalactam -6.5.
O=C(c1ccc(C(F)(F)F)cc1)N1CCC(=O)N(C(CO)Cc2ccccc2)CC1 (centres undefined) was read as Mtb growth 0.2%, RecA splice inh 11.8 and Mtb betalactam -5.3.
`CC(C)N1C(=O)CCC1C(=O)N1CCN(c2ccccn2)CC1` (centres undefined) gave Arbovirus inh -3.4, RecA splice inh 0.4, YopH inh -24.6, Mtb betalactam -13.2 and Arbovirus inh repeat 0.9.
Screening COc1ccc(-c2nc3ccccc3nc2-c2ccccc2)cc1OC returned RecA splice inh -11.5 and Mtb betalactam 4.7.
Screening COc1ccc(-c2csc(NC(=O)c3ccccc3Br)c2C(=O)O)cc1 returned RecA splice inh 0.3 and Mtb betalactam 6.4.
`CCOC(=O)C1=C(N)OC2=C(C(=O)CCC2)C1c1ccco1` (centres undefined) gave Arbovirus inh -4.9, Mtb growth -8.0%, RecA splice inh -3.7, YopH inh -19.1 and Mtb betalactam -13.7.
Screening CC(C)(C)S(=O)(=O)/C(C#N)=N/Nc1ccc(S(C)(=O)=O)cc1 returned Arbovirus inh 5.1, Mtb growth 8.6%, RecA splice inh 5.7 and Mtb betalactam 0.6.
`Cc1ccccc1N1C(S)=C(C#N)C(=O)NC12CCCCC2` gave Arbovirus inh -4.5, Mtb growth -1.5%, RecA splice inh -2.6, YopH inh 2.3 and Mtb betalactam -2.3.
`O=C(CN1CCN(S(=O)(=O)c2ccc(Br)cc2)CC1)c1ccc(O)c(O)c1` gave RecA splice inh -0.8 and Mtb betalactam -2.2.
COc1ccccc1-n1nnnc1SCC(=O)NC1CCCCC1 was read as RecA splice inh -5.4 and Mtb betalactam -3.5.
`Cc1cccc(/N=C/c2sc3ccccc3c2O)n1` gave Mtb growth -13.7%, RecA splice inh -1.9 and Mtb betalactam -0.3.
Screening CC(OC(=O)c1ccc2c(=O)n3c(nc2c1)CCCCC3)C(=O)Nc1ccc(F)cc1Cl (centres undefined) returned Arbovirus inh 0.1, Mtb growth 14.4%, RecA splice inh -0.4, YopH inh -25.4 and Mtb betalactam 34.8.
COc1ccc(/C=C/C=N/NC(=O)COc2ccc(OC)cc2)cc1 was read as Arbovirus inh -19.2, Mtb growth -2.5%, RecA splice inh -0.2, YopH inh -17.6 and Mtb betalactam 3.5.
N/C(Cc1ccc([N+](=O)[O-])cc1)=N\OC(=O)c1ccc([N+](=O)[O-])cc1 was read as Arbovirus inh -3.3, RecA splice inh 1.3, YopH inh -27.5 and Mtb betalactam 58.6.
For CC(Cc1c[nH]c2ccccc12)NC(=O)OCCCl (centres undefined) the results were Arbovirus inh -1.0, Mtb growth 0.2%, RecA splice inh -1.0 and Mtb betalactam 4.8.
Cc1nn(C)cc1S(=O)(=O)N1CCN(c2ccc(F)cc2)CC1 was read as RecA splice inh -0.8 and Mtb betalactam -9.0.
Screening COc1ccccc1C(=O)COC(=O)c1cc([N+](=O)[O-])ccc1N1CCOCC1 returned RecA splice inh -0.3 and Mtb betalactam -4.8.
CCC(=NCc1cc(OC)cc(OC)c1)c1c(O)n(C2CCCCC2)c(=O)[nH]c1=O was read as Mtb growth 3.9%, RecA splice inh 0.5 and Mtb betalactam 29.2.
For CCOC(=O)[C@H](CCc1ccccc1)N[C@@H](C)C(=O)N1[C@H](C(=O)O)C[C@@H]2CCC[C@@H]21 the results were Mtb growth -11.4%, RecA splice inh -5.0 and Mtb betalactam -0.7.
`CC(C)Oc1cccc(C(=O)C2CCCN(Cc3ccon3)C2)c1` (centres undefined) gave Arbovirus inh 6.5, Mtb growth 5.1%, RecA splice inh -6.3 and Mtb betalactam 10.6.
O=C(OCC(=O)N1CCc2ccccc21)c1ccc[nH]c1=O was read as Arbovirus inh 5.8, Mtb growth 6.0%, RecA splice inh 2.6 and Mtb betalactam -5.4.
`COC(=O)CN1C(=O)C2(OCCCO2)c2ccccc21` gave Arbovirus inh 1.6, Mtb growth -4.3%, RecA splice inh -0.3, YopH inh -5.7 and Mtb betalactam -0.9.
COC(=O)c1cc(C(=O)Nn2cnnc2)cc([N+](=O)[O-])c1 was read as RecA splice inh -1.4 and Mtb betalactam -4.8.
For COc1ccc(OC)c(/C=C/C(=O)c2ccc3c(c2)OCCO3)c1 the results were RecA splice inh -0.1 and Mtb betalactam 5.5.
CCCC(=O)O[C@@H]1C[C@@H](C)N(C(=O)c2ccccc2)c2ccc(C)cc21 was read as Arbovirus inh -3.1, Mtb growth 4.4%, RecA splice inh 4.5, YopH inh -7.4 and Mtb betalactam -4.3.
`C#Cc1cccc(C(=O)N2CCCC(Nc3cccc(F)c3)C2)c1` (centres undefined) gave RecA splice inh 4.2 and Mtb betalactam -12.6.
For CCS(=O)(=O)N1CCC(NC(=O)c2ccco2)CC1 the results were Arbovirus inh -2.2, Mtb growth -1.1%, RecA splice inh 2.9, YopH inh -31.8 and Mtb betalactam -9.3.
`COc1ccc(OCC(=O)Nc2sc3c(c2C(=O)NCC2CCCO2)CCC3)cc1` (centres undefined) gave Arbovirus inh 3.2, Mtb growth -4.9%, RecA splice inh -0.9, YopH inh -46.0 and Mtb betalactam 6.5.
Screening COc1ccc(Cl)c2c1[nH]c1nc(SCc3cccnc3)nnc12 returned Arbovirus inh -5.7, Mtb growth -13.2%, RecA splice inh 2.5 and Mtb betalactam -3.3.
N=c1n(CCCOc2ccc(F)cc2)c2ccccc2n1CC(N)=O was read as Mtb growth 5.3%, RecA splice inh -0.7 and Mtb betalactam 0.6.
Screening COc1ccc(S(=O)(=O)CCC(=O)Nc2cccc(OC)c2)cc1 returned Arbovirus inh 7.5, Mtb growth -2.5%, RecA splice inh 4.3 and Mtb betalactam -2.5.
For Cc1nc2ccccc2n1CC(=O)NC(C)C1CC2CCC1C2 (centres undefined) the results were Arbovirus inh 5.3, Mtb growth -0.1%, RecA splice inh 3.7 and Mtb betalactam -7.2.
Screening Cc1ccc(-c2nc(N)sc2-c2ccc(C)cc2)cc1 returned Arbovirus inh -33.6, Mtb growth 16.0% and RecA splice inh 14.1.
CCC(C)NC(=O)CCc1nc2ccccc2n1-c1ccccc1 (centres undefined) was read as Arbovirus inh 9.4, Mtb growth -3.8%, RecA splice inh 0.2, YopH inh -12.3 and Mtb betalactam 0.0.
For CCn1c(=O)c2cc(C(=O)N(C)c3ccccc3F)sc2c2ccccc21 the results were Mtb growth 9.1% and RecA splice inh -0.4.

Bioassay records as filed in PubChem.
